From PubChem
WNV protease inh: blocks West Nile virus NS2B-NS3 protease activity; z-score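 (tested at a level between 10 and 100 µM)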; 65,000 compounds, 0.18% hits; WNV NS2B-NS3 protease, fluorogenic substrate Ex360/Em465; stronger effect = lower value; AID 577;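 active = z-score at -3 or under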;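 also: score is relative to mean and spread of the compound wells of a plate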
Target sequence (P06935 1371-1501 limits assumed): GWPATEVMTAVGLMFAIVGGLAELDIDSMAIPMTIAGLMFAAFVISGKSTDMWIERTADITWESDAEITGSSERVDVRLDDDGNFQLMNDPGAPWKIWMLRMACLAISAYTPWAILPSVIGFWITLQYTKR
Target sequence (P06935 1502-1679 limits assumed): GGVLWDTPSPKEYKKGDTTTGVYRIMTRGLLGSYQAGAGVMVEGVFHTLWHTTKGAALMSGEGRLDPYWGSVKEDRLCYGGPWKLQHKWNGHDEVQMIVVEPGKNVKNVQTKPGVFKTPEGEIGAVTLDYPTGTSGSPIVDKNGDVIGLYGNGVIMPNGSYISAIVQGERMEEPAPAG
Hsc70 ATP site: small molecules displacing fluorescent ligand from Hsc70 – biochemical, fluorescence polarization, primary screen (AID 568). Hsc70 fluorescence polarization, probe displacement; higher % means a stronger effect; strong numbers were not always called active. 83,000 tested, under 10 active. displacement, % at 20 µM; hits with a dose series show IC50 in µM;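 active = displacement above 50% without optical interference and an IC50 on retest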;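 also: ATPase domain with a fluorescein-tagged ATP probe; 0% = vehicle and 100% = excess ADP; read after one hour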
MT1-MMP reporter: MT1-MMP gene expression reporter suppression – cell-based, luciferase reporter, luminescence (AID 618) | MT1-MMP promoter luciferase reporter cells, luminescence | calls from a first round at 10 µM; hits with a dose series show EC50 in µM | 87,000 compounds, 0.62% hits;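 active = over half of the reporter light lost at 10 µM or EC50 under 50 µM; inactive = the rest and hits that failed the dose series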;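 also: actives suppress MT1-MMP promoter-driven transcription so potencies describe inhibitors; HT1080 fibrosarcoma cells; overnight exposure; toxic or luciferase-blocking compounds were not removed from the actives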
Numbers without * were called inactive; i = inactive; x = not tested or not shown; & = joins results of further samples. Some of the compounds tested; count on the stated rates, not on these rows.

item	smiles	WNV protease inh	Hsc70 ATP site	MT1-MMP reporter
1	CN1C(=O)C(Cc2c[nH]c3ccccc23)C(=O)N(C)C1=O	-0.29	8.2%	i
2	CCOc1ccc(-n2c(O)c(C=NCCN(CC)CC)c(=O)[nH]c2=O)cc1	-0.02	-6.5%	i
3	OC12Oc3ccccc3C=C1N1CCC2CC1 (centres undefined)	0.04	3.5%	i
4	COc1ccc(CCn2c(O)c(C=NC3CC3)c(=O)[nH]c2=O)cc1OC	0.92	5.1%	i
5	COC(=O)C(O)(c1c(C)[nH]c2ccccc12)C(F)(F)F (centres undefined)	x	2.7%	i
6	O=C(COc1ccccc1)N1CCN(Cc2c[nH]c3ccccc23)CC1	-0.46	-5.1%	i
7	CC1CCCC(C2(O)C(=O)Nc3ccccc32)C1=O (centres undefined)	-0.96	0.2%	i
8	CCOC(=O)[C@@]1(C#N)C(c2ccc(Cl)c(Cl)c2)[C@H](C(N)=O)N2C=C(C(C)=O)C=C[C@H]21 (some centres undefined)	x	20%	i
9	CCOC(=O)C1=C(N)Oc2cc(C)oc(=O)c2C12C(=O)N1c3c(cccc32)C(C)CC1(C)C (centres undefined)	-0.88	-4.0%	i
10	O=C1NC(=O)C(CCc2ccncc2)(C2CCCCC2)C(=O)N1	0.2	-5.9%	i
11	COC(=O)CC1=C(C(=O)OC)C2(C(=O)N(C)c3ccccc32)C(C#N)=C(N)O1 (centres undefined)	-0.89	-3.0%	i
12	O=C(NC(Cc1ccccc1)C(=O)N1CCC2(CC1)OCCO2)C1CCCCC1 (centres undefined)	1.2	2.9%	i
13	CCN1/C(=C\C=C\C2=[N+](CC)c3ccccc3C2(C)C)C(C)(C)c2ccccc21	x	-166%	i
14	Cn1c[n+](C)cc1C(O)c1ccccc1 (centres undefined)	0.5	-4.0%&-2.4%	i
15	COC(=O)[C@@H]1[C@@H](C(=O)OC)C2(c3ccccc3-c3ccccc32)N(c2ccc(Cl)cc2)N1C#N	x	-5.6%	i
16	CCCCn1c(O)c(C(CC)=NCc2ccco2)c(=O)[nH]c1=O	x	3.6%	i
17	CCC(=O)c1cc(F)c(N2CCN(CC)CC2)cc1C	x	-1.3%	i
18	COC(=O)C(C)Oc1cc(C)cc2oc(=O)c3c(c12)CCCC3 (centres undefined)	0.62	7.8%	i
19	O=P(NS(=O)(=O)c1ccc(Br)cc1)(Oc1ccccc1)Oc1ccccc1	x	1.3%	i
20	COc1ccc(OC)c([C@@H](O)[C@H](C)NC(C)(C)C)c1	0.26	-0.9%	i

(cont.)
item	smiles	WNV protease inh	Hsc70 ATP site	MT1-MMP reporter
21	O=C1CC(N2CC=C(c3ccccc3)CC2)C(=O)N1c1ccc(F)cc1 (centres undefined)	-1.6	-1.9%	i
22	COCCOC(=O)C1=C(N)Oc2c(c(=O)oc3ccccc23)C1c1ccncc1 (centres undefined)	0.17	0.9%	i
23	COc1ccccc1/C=N/N=C(/N)N[N+](=O)[O-]	x	1.5%	i
24	CN1CCC(n2nccc2N)CC1	0.9	2.6%	i
25	CC(C)NS(=O)(=O)c1ccc(OCC(=O)N2CCN(C)CC2)cc1	-0.42	7.6%	i
26	CCCCOc1ccc(CC2C(=O)N(C)C(=O)N(C)C2=O)cc1	1.2	4.5%	i
27	Cc1nn(C)c(C)c1/C=C1/CC2C3CC=C4CC(O)CCC4(C)C3CCC2(C)C1=O (centres undefined)	x	-11%	i
28	COc1cc(C2SCC(=O)Nc3c2c(C)nn3-c2ccccc2)cc(OC)c1OC (centres undefined)	x	0.2%	i
29	Cc1ccc2c(c1)C(c1ccccc1)NCC(=O)N2 (centres undefined)	-0.93	3.2%	i
30	CCOC(=O)C1SC2(C(F)(F)F)CC1(O)c1c(C)cc(C)nc1O2 (centres undefined)	0.89	5.0%	i
31	CN1CCN(c2ccc(C(N)=O)cc2N)CC1	-1.1	0.0%	i
32	CCOC(=O)N(c1ccccc1)P1(=S)OCCO1	-1.1	0.8%	i
33	CC1N(O)C2CCCCCC2N1O (centres undefined)	-0.34	5.2%	i
34	O=c1cc(C(F)(F)F)c2cc3c4c(c2o1)CCCN4CCC3	x	119%	i
35	OCC1(CO)COC(c2cccnc2)N1 (centres undefined)	0.95	4.2%	i
36	Cc1ccc2c(c1)CC1(CN2C)C(=O)NC(=O)N(c2cc(C)ccc2C)C1=O (centres undefined)	-1	-3.5%	i
37	CC(C)c1ccc(O)c(CN2CCN(c3ccccc3)CC2)c1	-0.68	-1.2%	i
38	CC(Cc1ccccc1)NC(=O)NC(C)Cc1ccccc1 (centres undefined)	x	5.4%	i
39	Cc1ccc2cccc(OC(=O)N3CCCC3)c2n1	-0.32	1.7%	i
40	CCC(C)N1C(=O)NC(=O)C2(Cc3cc(C)ccc3N(C)C2)C1=O (centres undefined)	-1.2	6.8%	i

(continued)
item	smiles	WNV protease inh	Hsc70 ATP site	MT1-MMP reporter
41	CC(=NCCC1=CCCCC1)c1c(O)[nH]c(=O)[nH]c1=O	0.37	-3.1%	i
42	Cc1ccc2nc(-c3ccncc3)cc(C(=O)N3CCC4(CC3)OCCO4)c2c1	-0.29	-2.4%	i
43	CCN(CC)c1ccc(CN2CC=C(c3ccc(F)cc3)CC2)cc1	x	0.8%	i
44	COc1ccc(-n2c(O)c(C=NCCCn3ccnc3)c(=O)[nH]c2=O)cc1	x	-0.2%	i
45	CCN(CC)c1ccc(CC2C(=O)N(C)C(=O)N(C)C2=O)cc1	0.1	-12%	i
46	Cc1nn(CCC#N)c2c1P(=S)(N1CCCC1)OC(c1ccc(F)cc1)=N2 (centres undefined)	0.21	3.2%	i
47	Cc1nn(-c2ccccc2)c(Cl)c1C1C(C#N)=C(N)Oc2c1c(=O)oc1ccccc21 (centres undefined)	1.3	1.8%	i
48	CCOC(=O)C(O)(c1ccc(NC(=O)c2ccco2)c(OC)c1)C(F)(F)F (centres undefined)	-0.2	-3.9%	i
49	CCOC(=O)c1c(N)n(CCCOC(=O)c2ccco2)c2nc3ccccc3nc12	1.8	3.6%	i
50	Cc1ccc(S(=O)(=O)NC(CC(=O)N2CCC3(CC2)OCCO3)c2ccco2)cc1 (centres undefined)	-0.01	2.6%	i
51	CCCCCP(=O)(O)c1ccccc1	-1.4	0.4%	i

Compounds shown so far with nitrogen in an aromatic ring (21):
item	smiles	WNV protease inh	Hsc70 ATP site	MT1-MMP reporter
1	CN1C(=O)C(Cc2c[nH]c3ccccc23)C(=O)N(C)C1=O	-0.29	8.2%	i
2	CCOc1ccc(-n2c(O)c(C=NCCN(CC)CC)c(=O)[nH]c2=O)cc1	-0.02	-6.5%	i
4	COc1ccc(CCn2c(O)c(C=NC3CC3)c(=O)[nH]c2=O)cc1OC	0.92	5.1%	i
5	COC(=O)C(O)(c1c(C)[nH]c2ccccc12)C(F)(F)F (centres undefined)	x	2.7%	i
6	O=C(COc1ccccc1)N1CCN(Cc2c[nH]c3ccccc23)CC1	-0.46	-5.1%	i
10	O=C1NC(=O)C(CCc2ccncc2)(C2CCCCC2)C(=O)N1	0.2	-5.9%	i
14	Cn1c[n+](C)cc1C(O)c1ccccc1 (centres undefined)	0.5	-4.0%&-2.4%	i
16	CCCCn1c(O)c(C(CC)=NCc2ccco2)c(=O)[nH]c1=O	x	3.6%	i
22	COCCOC(=O)C1=C(N)Oc2c(c(=O)oc3ccccc23)C1c1ccncc1 (centres undefined)	0.17	0.9%	i
24	CN1CCC(n2nccc2N)CC1	0.9	2.6%	i
27	Cc1nn(C)c(C)c1/C=C1/CC2C3CC=C4CC(O)CCC4(C)C3CCC2(C)C1=O (centres undefined)	x	-11%	i
28	COc1cc(C2SCC(=O)Nc3c2c(C)nn3-c2ccccc2)cc(OC)c1OC (centres undefined)	x	0.2%	i
30	CCOC(=O)C1SC2(C(F)(F)F)CC1(O)c1c(C)cc(C)nc1O2 (centres undefined)	0.89	5.0%	i
35	OCC1(CO)COC(c2cccnc2)N1 (centres undefined)	0.95	4.2%	i
39	Cc1ccc2cccc(OC(=O)N3CCCC3)c2n1	-0.32	1.7%	i
41	CC(=NCCC1=CCCCC1)c1c(O)[nH]c(=O)[nH]c1=O	0.37	-3.1%	i
42	Cc1ccc2nc(-c3ccncc3)cc(C(=O)N3CCC4(CC3)OCCO4)c2c1	-0.29	-2.4%	i
44	COc1ccc(-n2c(O)c(C=NCCCn3ccnc3)c(=O)[nH]c2=O)cc1	x	-0.2%	i
46	Cc1nn(CCC#N)c2c1P(=S)(N1CCCC1)OC(c1ccc(F)cc1)=N2 (centres undefined)	0.21	3.2%	i
47	Cc1nn(-c2ccccc2)c(Cl)c1C1C(C#N)=C(N)Oc2c1c(=O)oc1ccccc21 (centres undefined)	1.3	1.8%	i
49	CCOC(=O)c1c(N)n(CCCOC(=O)c2ccco2)c2nc3ccccc3nc12	1.8	3.6%	i
